Source: PubChem BioAssay (several laboratories)
YopH PTP inh – YopH tyrosine phosphatase inhibitors, primary screen, biochemical, fluorescence Ex485/Em525 | inhibition, %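 (about 10 µM by stock and volumes)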 | YopH tyrosine phosphatase [Yersinia enterocolitica] | 140,000 tested, 0.16% active;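 active = inhibition of 50% or more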;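 note: controls were vehicle for no effect and minimum signal wells for full effect; inactives centre near -20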
Mtb H37Rv – M. tuberculosis H37Rv growth inhibitors, H37Rv strain (AID 1626). M. tuberculosis H37Rv growth inhibition; higher % means a stronger effect. one-dose inhibition, % at 10 µM; IC50 in µM for titrated hits. 220,000 tested, 0.95% active;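 active = confirmed in a dose series; inconclusive = inhibition above 80% but not taken into the dose series; inactive = below 80% or under 30% at every dose of the series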;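 note: bacteria incubated seven days before Alamar blue readout; 0% = bacteria only wells and 100% = bacteria with antibiotic wells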
Mtb betalactam – beta-lactam sensitization of Mtb H37Rv, H37Rv. M. tuberculosis H37Rv growth with meropenem, percent inhibition; hits of this screen are not shown here. inhibition, % at 25 µM. 330,000 tested, 0.27% active;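 active = about 74% or more and at least 40 points above the plate without the antibiotic, then above 30% in a dose series; inconclusive = first-round hits that could not be retested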;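 note: growth measured after seven days incubation then overnight dye step; 0% = bacteria only wells and 100% = bacteria with antibiotic; twin plates without the antibiotic show which effects depend on it; some results filed as inactive read as strong as hits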
RecA splice inh – Mtb RecA intein splicing inhibitors, primary screen, biochemical, fluorescence, HTS; cell-free RecA intein splicing; inhibition, %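 (about 9 µM by stock and volumes)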; 290,000 tested, 0.75% active; Protein RecA (Mycobacterium tuberculosis (strain ATCC 25618 / H37Rv)), P9WHJ3; AID 2221, 2009; in the data active = inhibition above about 30%; inconclusive = no clear call, values can overlap the other calls;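 note: 0% = vehicle wells and 100% = reference inhibitor control wells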
Target sequence (P9WHJ3 whole entry, looked up, canonical isoform): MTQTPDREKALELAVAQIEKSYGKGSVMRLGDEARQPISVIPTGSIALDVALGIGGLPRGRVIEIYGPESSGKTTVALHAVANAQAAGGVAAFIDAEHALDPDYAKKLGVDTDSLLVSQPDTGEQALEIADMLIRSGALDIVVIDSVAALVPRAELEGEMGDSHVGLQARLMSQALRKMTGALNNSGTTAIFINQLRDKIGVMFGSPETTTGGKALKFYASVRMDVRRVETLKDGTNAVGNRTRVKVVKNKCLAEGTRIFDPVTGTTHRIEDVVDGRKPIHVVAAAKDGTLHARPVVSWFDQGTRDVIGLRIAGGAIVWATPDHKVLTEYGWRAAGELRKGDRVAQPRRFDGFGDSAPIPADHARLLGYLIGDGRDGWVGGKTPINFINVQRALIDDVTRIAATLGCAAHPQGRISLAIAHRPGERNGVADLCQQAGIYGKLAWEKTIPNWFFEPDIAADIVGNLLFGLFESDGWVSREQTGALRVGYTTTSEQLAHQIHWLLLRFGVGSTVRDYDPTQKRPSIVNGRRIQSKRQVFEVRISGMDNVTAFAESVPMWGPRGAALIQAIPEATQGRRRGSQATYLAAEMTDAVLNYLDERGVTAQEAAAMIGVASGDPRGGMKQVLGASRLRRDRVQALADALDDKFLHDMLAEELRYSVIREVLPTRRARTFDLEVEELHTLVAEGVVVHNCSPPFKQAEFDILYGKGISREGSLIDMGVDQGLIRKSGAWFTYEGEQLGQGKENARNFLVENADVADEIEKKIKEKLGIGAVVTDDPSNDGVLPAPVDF
Arbovirus inh – antivirals against arbovirus infection, primary screen, cell-based, full library, 10K replicate subset; arbovirus infection cell-based antiviral screen; inhibition, % at 10 µM; 200,000 tested, 0.37% active; AID 1251, 2008;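 active = inhibition from about 30%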;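 note: bluetongue infection of BSR cells; cell survival read as ATP light after 72 h; 0% = infected wells without compound and 100% = uninfected wells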
Arbovirus inh repeat – recorded beside Arbovirus inh, whose call it bears; inhibition, %; measured here: 10K subset replicate screen; many hits read low in the repeat;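 first of two repeat runs on a subset; 0% = infected and 100% = uninfected wells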
Starred values were filed as active, the others as inactive; ? = inconclusive; / = no result given. This is a subset; count on the stated rates, not on these rows.

SMILES | YopH PTP inh | Mtb H37Rv | Mtb betalactam | RecA splice inh | Arbovirus inh | others
COc1ccc(-c2cc(C3CCNCC3)[nH]n2)cc1 | / | / | 14 | 1.9 | /
O=C(O)c1cc2c(ccc3ccccc32)[nH]1 | 26 | -6% | 34 | -1.1 | 14
COc1cccc2cc(C(=O)N3CC(C)OC(C)C3)c(=O)oc12 (stereo unspecified) | / | / | -9 | -0.6 | /
CSc1ncccc1C(=O)N(C)CC(=O)Nc1ccc(Cl)c(C(F)(F)F)c1 | / | / | -3 | -2.2 | /
CCOC(=O)c1c(NC(=O)c2ccc(Cl)s2)sc(C)c1C | / | -5% | 2 | -6.3 | -1 | Arbovirus inh repeat=-5
Cc1ccc(S(=O)(=O)N(C)C)cc1NC(=O)CCc1c[nH]c2ccccc12 | / | 3% | 6 | 1.1 | -3
Cc1cccc(Oc2ccc(NC(=O)c3ccccc3C(=O)O)cc2)c1 | / | 18% | 3 | -1.8 | /
O=C(Nc1nnc2n1CCS2)c1ccc(Br)o1 | / | / | 67 | -2.6 | /
Cc1ccc(C)c(NC(=O)c2ccccc2O)c1 | -44 | 10% | -5 | -13 | 7
CCC(NC(=O)C1CCCC1)c1ccc(C)cc1 (stereo unspecified) | / | / | -6 | 1.2 | /
CCCCn1c(N)c(N(CCOC)C(=O)c2cccc(S(=O)(=O)N3CCCCC3)c2)c(=O)[nH]c1=O | / | / | 1 | -0.6 | /
COc1cc(C=O)ccc1OCCOCCOc1ccc(Cl)cc1 | -18 | 1% | 5 | -0.9 | 9
COc1ccccc1NC(=O)C(C)OC(=O)c1nc2nc(C)cc(C)n2n1 (stereo unspecified) | / | / | -16 | 0.2 | /
O=C(COC(=O)CNC(=O)c1ccc(Cl)cc1)Nc1cccc(S(=O)(=O)N2CCCC2)c1 | / | -3% | -8 | 1.6 | /
CC(=O)c1sc(NC(=O)c2ccc(C)c(C)c2)nc1C | / | 2% | 2 | -3.3 | -1
O=C(Nc1cc(N2CCOCC2)ncn1)Nc1cccc2ccccc12 | -24 | -5% | 14 | 3.1 | -2
CSCC(C)N1CCC(n2nccc2NC(=O)c2ccc3c(c2)OCO3)CC1 (stereo unspecified) | / | / | 2 | 0.4 | /
COCCn1c(NC(=S)NC(=O)C2CC2)cc(=O)[nH]c1=O | / | 4% | -12 | -1.9 | 1
CC(C)(C)C(=O)/C=C(N)/C=C/c1ccccc1 | -23 | -4% | ? | -1.2 | 8
CN1CCN(C(=O)CN(c2ccccc2)S(=O)(=O)N(C)C)CC1 | / | -2% | -4 | 0.1 | 6
CCN(CC)c1ccc(NC(=O)CCN2C(=O)c3ccccc3S2(=O)=O)c(C)c1 | / | / | -6 | -3.9 | /
O=C(NCCCn1ccnc1)c1cc2ccccc2o1 | / | 1% | -5 | -1.7 | -2
CCN(CC)C(=O)c1cc2c(=O)oc3ccccc3c2s1 | -17 | -2% | 1 | -0.9 | -3
CCOC(=O)C(C)n1nc(/C=C/c2ccc(OC)cc2)ccc1=O (stereo unspecified) | / | 1% | 5 | -2.9 | -2
COC(=O)c1cc(NC(=O)c2c(Cl)nc3sccn23)cc(C(=O)OC)c1 | -19 | -7% | -6 | 0.8 | -19
Brc1ccc(CSc2nnc(-c3ccco3)o2)cc1 | -14 | 16% | 7 | 8.9 | -19
Cc1ccc(S(=O)(=O)Nc2nncs2)cc1 | -19 | -4% | -4 | -2.4 | 2
O=C(NCC1(c2ccccc2)CCCC1)c1cccc(Br)c1 | -31 | -2% | 54 | 22 | 12
N=c1sccn1CC(=O)Nc1ccccc1-c1ccccc1 | -22 | 6% | 5 | 0.2 | -5 | Arbovirus inh repeat=9
CCCc1nc(N)c(C#N)c(-c2ccco2)c1CC | -10 | -2% | 31 | 1.0 | -1
O=C(O)c1ccccc1-c1ccc(/C=c2\sc3nc4cc(Br)cnc4n3c2=O)o1 | -2 | / | 3 | -12 | 3
COc1ccc(C(=O)NCc2cnn(C)c2)cc1OC1CCN(C(C)C)CC1 | / | / | 0 | -0.8 | /
CCOC(=O)C1CCN(C(=O)c2ccc3c(Cl)c4c(nc3c2)CCCC4)CC1 | / | / | 9 | 0.5 | /
NC(=O)CC(NC(=O)Cc1ccc(Cl)cc1)c1ccc(NC2CCCCCCC2)c([N+](=O)[O-])c1 (stereo unspecified) | / | / | 0 | -1.4 | /
COc1ccc(NC(C)=O)cc1S(=O)(=O)N1CCN(C(=O)c2ccccc2F)CC1 | / | -6% | -7 | 0.0 | /
Clc1ccc(CNc2ccccc2NCc2ccc(Cl)nc2)cn1 | / | -7% | 2 | 3.9 | -21
CCC1CCCCN1C(=O)Nc1ccc(F)cc1 (stereo unspecified) | -3 | -3% | -11 | 0.9 | 2
CCOC(=O)N1CCC(NC(=O)c2cc(COc3ccccc3SC)on2)CC1 | / | / | 4 | -1.8 | /
CCS(=O)(=O)N1Cc2ccccc2CC1C(=O)Nc1ccc(F)c(F)c1F (stereo unspecified) | / | / | 3 | 0.3 | /
COCCCNC(=S)NNC(=S)Nc1ccccc1 | / | 0% | -8 | -4.9 | /
CC(C)(C)C(=O)Nc1ccc(S(=O)(=O)N2CCC(c3nc4ccccc4[nH]3)CC2)cc1 | / | / | -18 | -4.9 | /
Cc1cc(=O)n2[nH]c(SCc3c(F)cccc3Cl)nc2n1 | / | / | -11 | 2.4 | /
CCCOc1ccc(C(CC(=O)O)NC(=O)Cc2ccccc2)cc1 (stereo unspecified) | / | / | 2 | -1.8 | /
Cc1ccc(NC(=S)N2CCC(N(C)CC3CCCO3)CC2)c(C)c1 (stereo unspecified) | -4 | 0% | -8 | -0.8 | -5
O=[N+]([O-])c1ccc(NC(=S)N/C(=N/CS(=O)(=O)c2ccccc2)c2ccccc2)cc1 | -7 | 9% | 10 | 3.5 | -10
CCn1c(CCNC(=O)c2ccco2)nc2ccccc21 | / | / | 6 | -1.7 | /
COc1ccc(C(=O)NCc2nnc(SCC(=O)Nc3ccccc3OC)o2)cc1 | / | / | -3 | -8.4 | /
CCN=c1sc2ccccc2n1CC(O)COc1ccccc1 (stereo unspecified) | 11 | 13% | 5 | 7.4 | 7
COC(=O)CNC(=O)c1cn(-c2ccc(C)c(C)c2)c(=O)c2ccccc12 | / | / | -6 | -3.7 | /
Cc1cccc(N2CC(C(=O)Nc3nnc(SCC(=O)Nc4cc(C)on4)s3)CC2=O)c1 (stereo unspecified) | -17 | 2% | 3 | 0.0 | 0
COc1ccccc1OCC(=O)Nc1nonc1NC(=O)COc1ccccc1OC | 7 | 11% | -7 | -3.0 | 2
Cc1cc(C)c2c(n1)SCC(=O)N2CC(=O)NCCC1=CCCCC1 | -38 | -8% | -1 | / | 2 | Arbovirus inh repeat=7
CCN(CC)CCNC(=O)C(=O)NCC1OCCN1S(=O)(=O)c1ccc(Cl)cc1 (stereo unspecified) | / | / | -8 | 2.1 | /
O=C1CSC(=Nc2cc(Cl)ccc2Cl)N1 | -2 | -4% | -17 | 0.4 | 2
Cc1cc(=O)oc2cc(OCC(=O)NCCCN3CCOCC3)c(Cl)cc12 | / | / | -4 | -2.6 | /
CCSc1nnc(-c2cc3c(s2)-c2ccccc2CC3)o1 | -29 | 17% | 52 | -1.2 | 0
C/C(CC(=O)Nc1ccc2c(c1)OCO2)=N\NC(=O)c1ccc(N)cc1 | / | 0% | 11 | -2.4 | /
O=C(COc1ccc(S(=O)(=O)N2CCOCC2)cc1)N1CCc2ccccc2C1 | / | 2% | -3 | 2.4 | /
O=C(NCCCN1CCOCC1)c1cc(-c2ccc(Cl)cc2)on1 | -26 | -5% | 3 | -0.1 | -2
CC(=O)N(/N=C/c1ccc([N+](=O)[O-])o1)c1nc2ccccc2c(=O)n1-c1ccccc1 | / | 8% | 55 | -7.0 | /

Other entries follow.
SMILES | YopH PTP inh | Mtb H37Rv | Mtb betalactam | RecA splice inh | Arbovirus inh | others
COc1ccccc1OCCn1c(CO)nc2ccccc21 | 1 | 1% | 9 | 4.0 | 5
C/C(=N\Nc1cccc2ccccc12)c1c(O)n(Cc2ccccc2)c(=O)[nH]c1=O | -16 | 5% | 14 | -2.3 | 5
COC(=O)Cn1c(CN(C)Cc2ccccc2)nc2c1c(=O)n(C)c(=O)n2C | / | / | -5 | -1.4 | /
Cc1ccccc1NS(=O)(=O)c1ccc(C(=O)N2CCN(c3ccccc3O)CC2)cc1 | / | / | -3 | 0.5 | /
Cc1noc(C)c1COc1ccc(C(=O)OCC(=O)c2ccc3c(c2)OCCO3)cc1 | -34 | 2% | 15 | 0.9 | 2
Clc1ccc2[nH]c3c(NCCN4CCOCC4)ncnc3c2c1 | -33 | -4% | -1 | -0.2 | 0
CCCCCCC1CCC(C(=O)N2CCOCC2)CC1 (stereo unspecified) | / | 0% | 12 | 3.5 | 4
Fc1ccc(-c2nc(-c3cccs3)no2)cc1 | / | 0% | -2 | -0.4 | /
COc1ccc(-c2nn3c(-c4ccccn4)nnc3s2)cc1OC | -31 | -12% | -6 | -1.3 | 0
CCCSc1ncccc1C(=O)O | / | -4% | -1 | 0.3 | /
C1CN(CC23CC4CC(CC(C4)C2)C3)CCO1 | -24 | 3% | -7 | / | -1
O=C(OCC(=O)N1CCN(C(=O)c2ccco2)CC1)c1ccccc1C(=O)c1ccc(Cl)cc1 | -50 | 4% | 12 | 2.5 | -1
Cc1ccc(N2C(=O)CC(N3CCN(S(=O)(=O)c4ccccc4)CC3)C2=O)c(C)c1 (stereo unspecified) | / | / | -6 | -2.8 | /
Cc1cc(C)cc(NC(=O)Nc2ccc(-n3ccc(C(F)(F)F)n3)cc2)c1 | / | 5% | 1 | -0.6 | /
CCCCCc1cc(O)c2c3c(c(=O)oc2c1)CN(C)CC3 | / | -9% | 28 | -1.9 | -2
COC(=O)[C@H](C)NC(=O)NC1CCN(Cc2ccccc2)CC1 | -9 | -1% | -8 | 0.4 | -8
COC(=O)c1c(NC(=O)CN2CCN(c3ccccc3Cl)CC2)sc(C)c1C | -25 | 15% | 88 | 7.5 | 9
COc1ccc(C2NC(=O)CCC2[N+](=O)[O-])c(OC)c1OC (stereo unspecified) | / | / | -4 | -1.8 | /
Cc1ccc2nc(-c3ccc(-c4cccc(Cl)c4)cc3)c(NCc3ccccc3)n2c1 | / | / | -12 | -8.5 | /
CCOC(=O)C1=C(C)OC(N)=C(C#N)C1c1cc2c(cc1Br)OCO2 (stereo unspecified) | -33 | 1% | 5 | 1.4 | -2

Four records picked at random from the list so far, as already listed:
SMILES | YopH PTP inh | Mtb H37Rv | Mtb betalactam | RecA splice inh | Arbovirus inh | others
Cc1ccc(N2C(=O)CC(N3CCN(S(=O)(=O)c4ccccc4)CC3)C2=O)c(C)c1 (stereo unspecified) | / | / | -6 | -2.8 | /
COc1ccc(-c2nn3c(-c4ccccn4)nnc3s2)cc1OC | -31 | -12% | -6 | -1.3 | 0
Cc1noc(C)c1COc1ccc(C(=O)OCC(=O)c2ccc3c(c2)OCCO3)cc1 | -34 | 2% | 15 | 0.9 | 2
COC(=O)c1c(NC(=O)CN2CCN(c3ccccc3Cl)CC2)sc(C)c1C | -25 | 15% | 88 | 7.5 | 9

Remaining list, next part
SMILES | YopH PTP inh | Mtb H37Rv | Mtb betalactam | RecA splice inh | Arbovirus inh | others
Cc1c(C(=O)Nc2ccncc2)sc2nc(-c3ccccc3)cn12 | -33 | 15% | 0 | 0.3 | 3 | Arbovirus inh repeat=5
CC(C)n1cnc2c(Nc3cccc(F)c3)nc(NCCO)nc21 | / | -14% | -11 | 0.5 | /
NC1=NC2(CCCCC2)N=C(Nc2ccc(F)cc2F)N1 | -45 | 7% | -2 | -3.1 | -7
Cc1cc(NC(=O)c2noc3c2CCCC3)nn1Cc1ccc(Cl)cc1 | -30 | -1% | 97 | 3.0 | -13
Cc1cccn2c(=O)nc(SCC(=O)N3CC(C)OC(C)C3)nc12 (stereo unspecified) | / | / | 4 | 0.6 | /
Cc1ccc(N(CC(=O)NC2CCCCC2C)S(=O)(=O)c2c(C)nn(C)c2C)cc1 (stereo unspecified) | / | / | -3 | -0.1 | /
CCOc1ccccc1N1CC(C(=O)N2CCc3ccccc32)CC1=O (stereo unspecified) | -2 | -5% | -8 | -3.3 | 11
CSc1nnc(C)c(=O)n1COC(=O)COc1ccccc1C | -41 | 1% | 6 | -2.6 | 4
Cc1ccc(OCC(=O)Nc2ccc(C)c(S(=O)(=O)N3CCCCCC3)c2)c([N+](=O)[O-])n1 | / | 5% | -5 | -3.7 | -3
Cc1sc2ncnc(N3CCC(C(=O)Nc4ccc(C#N)c(Cl)c4)CC3)c2c1C | / | / | 77 | -0.2 | /
Cc1nc([N+](=O)[O-])c(Br)n1CC(=O)c1ccc(F)cc1 | / | 53% | / | / | -12
